# Bioassay records: PubChem BioAssay, National Center for Advancing Translational Sciences (NCATS)
# gsp antag – qHTS for Antagonists of gsp, the Etiologic Mutation Responsible for Fibrous Dysplasia/McCune-Albright Syndrome: qHTS. gsp-mutant cells, cAMP HTRF, 30 min; control for the full effect not named in the record. Potency, µM (series often up to 76.9 µM), for the others: top-dose activity change, negative = inhibition, most hits filed as inhibitors. 0.4% of 340,000 active; active = falling curve of any shape with a large fitted effect; inconclusive = falling curve, mostly with a smaller effect; inactive = flat or rising curve; cell line not stated here;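 note: intracellular cAMP measured with PDE inhibitor Ro 20-1724 present during compound exposure; potency is the fitted concentration of half-maximal effect; % is set by controls: 0 for no effect and ±100 for the full control effect; nearly all actives have a fitted effect of over 65% in size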
#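 Cells, 2000/well, grown 16–24 h in DMEM 10% FBS with 0.5 mg/ml G418, then compounds plus […] (300 uM addition stock), 30 min at 37C. cAMP read by HTRF (cAMP-d2 and anti-cAMP antibody-K in lysis buffer) after 30 min RT.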
# CtBP-E1A blk – qHTS Assay for Inhibitors of the CtBP/E1A Interaction. CtBP / adenovirus E1A interaction (AlphaScreen). 0.49% of 340,000 active. AlphaScreen GST-E1A/His-CtBP binding, 1536-well; stronger effect = lower value; control for the full effect not named in the record. AID 651724, 2012. activity change, % (no concentration beside the values); in the data active means activity change below about -65%; inconclusive means about -30% to -65%; inactive means above about -30%; note: % is set by controls: 0 for no effect and ±100 for the full control effect; compound concentration not given in the record
#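 Protein mix (5X: 125 nM each GST-E1A, His-CtBP) was incubated with pinned compound 2 h at 37 deg C in dark, in 50 mM Tris pH 8.0 buffer with 300 mM NaCl. Glutathione donor and nickel acceptor beads followed; AlphaScreen signal read after 1 h.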
# Six1-Eya2 inh – qHTS Assay for Inhibitors of the Six1/Eya2 Interaction | Homeobox protein SIX1 (Homo sapiens) + Protein phosphatase EYA2 (Homo sapiens), … | AlphaScreen GST-Six1/His-Eya2 binding, biochemical; stronger effect = lower value; control for the full effect not named in the record | activity change, % (test concentration not listed) | 0.56% of 360,000 active | AID 651725, 2012; in the data active = activity change below about -65%; inconclusive = about -30% to -65%; inactive = above about -30%; note: % is set by controls: 0 for no effect and ±100 for the full control effect; compound concentration not given in the record
#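 Homogeneous AlphaScreen proximity assay pairing GST-Six1 with His-tagged Eya2 (added as 5X mix: 250 nM and 500 nM) in 50 mM Tris pH 8.0, 300 mM NaCl, 1 mM TCEP. Glutathione donor and nickel acceptor beads; 1 h, 37 °C, dark.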
# D2 ag – Beta-Arrestin HTS for Positive Allosteric Modulators of the Human D2 Dopamine Receptor: Agonists. DiscoveRx PathHunter D2 beta-arrestin, luminescence, 90 min; 100% = 57 uM dopamine signal. activation, % (concentration not given with the values). 0.084% of 360,000 active. AID 624465, 2012; in the data active = activation above about 40%; inconclusive = about 15% to 40%; inactive = below about 15%; note: compound concentration not given in the record; the text of the record calls up to 30% inactive
# Target sequence (P14416 whole entry, looked up): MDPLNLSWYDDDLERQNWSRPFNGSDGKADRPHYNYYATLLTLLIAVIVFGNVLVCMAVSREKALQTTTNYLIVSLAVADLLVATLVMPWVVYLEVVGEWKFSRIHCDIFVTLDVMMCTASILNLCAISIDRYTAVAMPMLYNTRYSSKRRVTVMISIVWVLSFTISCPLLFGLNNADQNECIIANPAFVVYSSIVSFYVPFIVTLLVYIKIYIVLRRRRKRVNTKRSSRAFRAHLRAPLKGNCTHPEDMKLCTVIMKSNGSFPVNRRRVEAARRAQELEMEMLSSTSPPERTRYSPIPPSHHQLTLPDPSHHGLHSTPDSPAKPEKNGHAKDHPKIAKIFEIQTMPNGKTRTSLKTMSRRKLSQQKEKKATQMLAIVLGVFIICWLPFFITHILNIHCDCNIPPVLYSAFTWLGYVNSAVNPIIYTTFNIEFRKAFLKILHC
#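 DiscoveRx PathHunter D2 beta-arrestin cells (2,100/well) attached overnight, then compound-stimulated 90 min at 37 C in HBSS/10 mM HEPES/0.1% Tween-20 buffer; beta-galactosidase complementation read by luminescence after 1 h at ambient temperature. Dopamine 57 uM final (EC100) as control.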
# D2 PAM – Beta-Arrestin HTS for Positive Allosteric Modulators of the Human D2 Dopamine Receptor: Potentiators; D(2) dopamine receptor (Homo sapiens), P14416; DiscoveRx D2 beta-arrestin cells, luminescence, 90 min; 100% = 57 uM dopamine signal; potentiation, % (concentration not given with the values); 0.23% of 360,000 active; AID 624464, 2012; active = potentiation of 50% or more; inconclusive = 30% to 50%; inactive = 30% or less;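 note: compound concentration not given in the record; tested on top of an EC20 dose of dopamine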
#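 PathHunter beta-arrestin assay in DiscoveRx D2 cells. Compounds were added with an EC20 of dopamine (50 nM final) for 90 min at 37 deg C. Luminescence was read 1 h after detection reagent, with 57 uM dopamine as the EC100 control.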
# * = called active by the depositor.
SMILES,gsp antag,CtBP-E1A blk,Six1-Eya2 inh,D2 ag,D2 PAM
CC[C@@H]1C(=O)OC[C@@H]1Cc1cncn1C,2%,5,-8,-8.5,1

# Only part of the results is shown. The share of hits here may be higher or lower than overall.
